Bioassay records deposited in PubChem BioAssay by several laboratories.
FGF22 binding = shifts melting point of recombinant human FGF22. AID 651658. Q9HCT0. 1.5% of 340,000 active. calls only at 9.99 µM. recombinant FGF22 thermal shift, SYPRO orange fluorescence; percent of sucrose octasulfate shift, DMSO zero;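 active = melting point raised past a set limit in the mean and every replicate; three in four hits are not shown here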
Target sequence (Q9HCT0 whole entry, looked up): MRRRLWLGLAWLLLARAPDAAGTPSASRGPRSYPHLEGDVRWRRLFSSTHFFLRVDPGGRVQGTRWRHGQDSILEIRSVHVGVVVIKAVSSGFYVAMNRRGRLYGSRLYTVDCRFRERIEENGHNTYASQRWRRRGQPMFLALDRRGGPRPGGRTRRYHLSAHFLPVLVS
E coli growth = inhibitors of Escherichia coli growth | AID 1053175 | OD600, 23 h; stronger effect = lower value | 0.21% of 330,000 active | OD600 absorbance (test concentration not listed);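 active = OD600 absorbance below the run mean of sample wells minus 3.6 SD, in any replicate, cut at about 0.56 in these data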;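 note: stock transfer was 300 nL into about 60 µL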
AF4-AF9 inh = inhibitors of human MLL-AF4/AF9 interaction; AlphaScreen, biotin-AF4 peptide binding to FLAG-AF9; inhibition, % at 10 µM; 0.47% of 350,000 active;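 active = every replicate reaching a set inhibition limit, whatever the replicate mean, cut at about 25% in these data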;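 note: 0% = plate neutral control median and 100% = total signal loss; the record names both 10 and 1 µM as test concentration; the first replicate is given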
rRNA inh HTS = inhibitors of bacterial rRNA selective over humanized ribosomes | E. coli WT GFP vs humanized-ribosome RFP mutants, fluorescence, 24 h; stronger effect = lower value; DMSO median 0, no signal -100 | AID 720706 | 1.6% of 350,000 active | GFP signal change (wild-type ribosome), % (test concentration not listed);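 active = significant combined selectivity score with lowered wild-type GFP, culture density cut under 30%, mutant RFP and density less affected; inactive = any of these conditions unmet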; note: one replicate is shown; some compounds called inactive have numbers as strong as hits
UCH37 DUB inh = human UCH37 deubiquitinating enzyme inhibition; Q9Y5K5; purified proteasome/UCH37, Ub-AMC cleavage fluorescence; inhibition, % (no concentration beside the values); 0.33% of 330,000 active; AID 588478;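 active = mean of two replicates above 20%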;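 note: 0% = compound-free wells with enzyme and 100% = wells lacking proteasome; stock transfer was 100 nL into about 20 µL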
Target sequence (Q9Y5K5 whole entry, looked up): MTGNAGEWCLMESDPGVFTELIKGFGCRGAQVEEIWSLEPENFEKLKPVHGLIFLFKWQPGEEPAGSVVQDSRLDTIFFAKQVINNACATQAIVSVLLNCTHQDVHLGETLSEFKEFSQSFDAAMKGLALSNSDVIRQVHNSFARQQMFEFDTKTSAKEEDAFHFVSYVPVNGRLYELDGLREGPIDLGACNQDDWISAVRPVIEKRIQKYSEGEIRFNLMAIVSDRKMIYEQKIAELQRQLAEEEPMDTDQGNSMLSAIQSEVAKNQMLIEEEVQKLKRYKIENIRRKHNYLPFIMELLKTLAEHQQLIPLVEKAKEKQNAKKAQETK
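Schedule: 30 min plus 25 min, room temperature / Material: human UCH37 within purified proteasomes / Technique: AMC fluorescence intensity at 355/460 nm / Buffer or medium: pH 7.4 Tris-HCl (50 mM) with ovalbumin, ATP-MgCl2, DTT / Controls: wells without proteasome as full block, compound-free enzyme plus substrate as uninhibited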
Beta apoptosis = beta cell apoptosis inhibition; 0.8% of 300,000 active; AID 435005; INS-1E cytokine-induced death, ATP luminescence, 48 h; percent of positive-control rescue, neutral wells zero; protection from apoptosis, % (no concentration beside the values);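 active = all replicates at 75% or more, or half of them and the mean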;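 note: 0% = cytokine-treated negative control wells and 100% = positive control rescue; higher means more ATP so stronger rescue from cytokine killing; wells of about 40 µL received 100 nL stock; the first replicate is given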
T cruzi repl = blocks replication of Trypanosoma cruzi; T. cruzi beta-gal in NIH3T3, luminescence, 90 h; 1.4% of 300,000 active; inhibition, % (no concentration beside the values);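 active = mean inhibition across valid replicates above about 55%, limit read from the data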;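 note: signal also drops with host cell toxicity which is not excluded here; 0% = plate median of DMSO wells and 100% = zero luminescence signal; higher percent means less beta-gal luminescence so fewer parasites; stock transfer was 50 nL into about 50 µL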
Bfl-1 A1 inh = inhibitors of the anti-apoptotic protein A1, read as caspase activation; MEF A1-2A-BIM cells, Caspase-Glo 3/7 luminescence, 3 h; percent of clofoctol response, vehicle zero; caspase activation, % (no concentration beside the values); 0.066% of 330,000 active;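 active = over half of replicate activation scores above 10%, or exactly half above 10 with the replicate mean above 10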;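 note: wells of about 30 µL received 50 nL stock; many hits fall short of the cut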
rRNA inh HTS OD600 = second read-out of rRNA inh HTS, no call of its own (marks repeat the call); OD600 change, %; measured here: OD600 growth;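 optical density of the mix in the first replicate; 0 = DMSO median and -100 = no signal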
rRNA inh HTS RFP = recorded beside rRNA inh HTS, whose call it bears; RFP signal change, %; measured here: RFP humanized mutant strains;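 first replicate; 0 = DMSO median and -100 = no signal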
* hit, by the source's call; i = inactive; . = no result given. Some of the compounds tested. The share of hits here may be higher or lower than overall.

1: COc1ccc(O)c(C(=O)c2cc(C#N)c(=O)n(Cc3ccccc3)c2)c1
2: CC(NC(=O)c1ccc2nc[nH]c2c1)c1ccccc1 (centres undefined)
3: O=[n+]1c2c(n([O-])c3ccccc31)CCC2
4: CC(C(=O)Nc1ccc(S(=O)(=O)N2CCOCC2)cc1)N1C(=O)C2CC=CCC2C1=O (centres undefined)
5: O=C(CCNS(=O)(=O)c1cccc2nsnc12)NCc1ccccc1Cl
6: COc1cc(S(=O)(=O)N2CCCCCC2)c(OC)cc1Br
7: O=c1nc(N/N=C/C=C/c2ccccc2)cn[nH]1
8: CC(C)(C)NCc1cc(Cl)ccc1OCc1cccs1

Screen / compound no.,1,2,3,4,5,6,7,8
FGF22 binding,i,i,.,i,.,.,i,i
E coli growth,0.68,0.68,0.69,0.69,0.66,0.7,.,.
AF4-AF9 inh,6.7,-1.9,.,-1.9,-0.6,.,-1.3,3.8
rRNA inh HTS,-11,-2,.,14,-13,.,-1,7
rRNA inh HTS OD600,-5,3,.,7,-27,.,1,-2
rRNA inh HTS RFP,2.6,-1.0,.,-7.5,-0.3,.,-1.1,-2.4
UCH37 DUB inh,2.6,0.2,9.3,3.7,3.9,-0.4,.,.
Beta apoptosis,13,2,5,0,.,-14,-1,.
T cruzi repl,-9,-28,4,-7,-10,12,-13,-22
Bfl-1 A1 inh,-1.2,0.4,-0.2,-1.0,0.3,-0.6,-5.7,0.7

9: CCOC(=O)C1CCN(C(=O)c2ccc(N3CCOCC3)c([N+](=O)[O-])c2)CC1
10: COC(=O)C1(Cc2cc(-c3ccccc3)no2)CCN(C(=O)OC(C)(C)C)CC1
11: COc1ccc(N(CC(=O)NCCC2=CCCCC2)S(C)(=O)=O)cc1OC
12: Cc1ccc(CNC(=O)C2CCCN(S(=O)(=O)N3CC(C)CC(C)C3)C2)cc1 (centres undefined)
13: COc1ccc(CN(C)C(C)C(=O)Nc2cccc3ccccc23)cc1 (centres undefined)
14: O=C(CCCN1C(=O)/C(=C/c2ccccc2)SC1=S)NCCCn1ccnc1
15: COc1ccc(N(CC(=O)NC(C)C)C(=O)CCC(=O)Nc2ccccn2)cc1
16: CCC(CC)c1nnc(NC(=O)c2cc([N+](=O)[O-])ccc2N2CCOCC2)s1

Screen / compound no.,9,10,11,12,13,14,15,16
FGF22 binding,i,i,i,i,i,i,i,i
E coli growth,0.7,.,0.68,0.71,0.65,0.67,0.63,0.71
AF4-AF9 inh,-6.8,-6.7,3.9,1.0,4.1,3.5,3.6,-16
rRNA inh HTS,5,-20,16,9,-17,-3,2,-1
rRNA inh HTS OD600,3,-35,7,3,-42,8,6,6
rRNA inh HTS RFP,-1.8,-18,-10,2.5,-4.1,22,-1.2,0.7
UCH37 DUB inh,2.3,.,1.3,3.0,2.8,8.5,3.0,6.9
Beta apoptosis,-1,3,-2,0,-10,121*,.,3
T cruzi repl,.,2,-4,-3,11,-3,0,.
Bfl-1 A1 inh,0.9,0.3,0.0,-0.1,0.7,-0.8,0.6,0.7

17: CCN1CCN(C(=O)c2ccc(Cl)c(S(=O)(=O)N3CCCCCC3)c2)CC1
18: COc1ccc(N2CC(C(=O)NNC(=O)c3ccc(Br)cc3)CC2=O)c(OC)c1 (centres undefined)
19: COC(=O)[C@]1(Cc2ccccc2)N[C@H](CN(C)C(=O)Nc2ccccc2)[C@@H]2C(=O)N(C)C(=O)[C@@H]21
20: Cc1ccn2cc(-c3ccc(NC(=O)c4ccco4)cc3)nc2c1
21: O=C(COc1ccc2c3c(c(=O)oc2c1)CCC3)Nc1ccccn1
22: O=C(N/N=C/c1ccccn1)c1cccc([N+](=O)[O-])c1
23: Cc1cccc(Nc2nnc(-c3ccc(N4CCOCC4)c([N+](=O)[O-])c3)c3ccccc23)c1
24: COc1ccc(Nc2nnc(SCC(=O)c3cc4ccccc4o3)s2)cc1

Screen / compound no.,17,18,19,20,21,22,23,24
FGF22 binding,i,i,i,.,i,i,i,i
E coli growth,0.68,0.72,0.7,0.6,0.72,.,0.72,0.71
AF4-AF9 inh,-0.5,1.1,-0.2,.,0.9,2.4,3.5,.
rRNA inh HTS,11,7,3,.,4,12,-32*,-12
rRNA inh HTS OD600,7,14,13,.,5,10,-20*,0
rRNA inh HTS RFP,1.8,1.3,0.3,.,-0.4,0.6,-2.2*,1.9
UCH37 DUB inh,0.1,2.9,0.3,4.2,-6.8,.,6.5,4.9
Beta apoptosis,-2,.,-8,4,-7,21,34,6
T cruzi repl,10,-20,.,18,-3,-14,52,-15
Bfl-1 A1 inh,-0.4,1.0,-1.2,-1.2,-8.4,-0.5,0.5,-1.0

25: Cn1nc(OCc2ccccc2)ccc1=O
26: CC(=O)NC(=O)c1cnn(-c2ccccc2)c1N
27: COc1cccc(C(=O)N(Cc2nc(-c3ccc(C)cc3)no2)C(C)C)c1
28: Cc1ccc(N2C(=O)C3CCCN3C2=S)cc1 (centres undefined)
29: Cn1c(=O)c2c(nc(N/N=C/c3ccco3)n2C)n(C)c1=O
30: Cc1cccc(OCCCC(=O)Nc2ccc(S(N)(=O)=O)cc2)c1
31: O=C(CN1C(=O)CC(c2ccco2)Sc2ccccc21)Nc1ccccc1F (centres undefined)
32: O=C(CC1C(=O)NCCN1Cc1ccc(Cl)c(F)c1)NC1CCCCC1 (centres undefined)

Screen / compound no.,25,26,27,28,29,30,31,32
FGF22 binding,.,i,.,i,i,i,i,i
E coli growth,0.68,0.67,0.69,0.68,.,0.66,0.72,0.74
AF4-AF9 inh,.,1.4,.,3.4,-1.9,-0.4,-3.4,1.9
rRNA inh HTS,.,-11,-2,6,10,-4,-4,-7
rRNA inh HTS OD600,.,-3,-3,7,9,-9,-1,-9
rRNA inh HTS RFP,.,-1.6,-0.5,-5.0,3.6,-4.0,-13,6.0
UCH37 DUB inh,0.2,1.0,3.2,0.5,.,1.7,-9.8,0.1
Beta apoptosis,3,-9,-6,3,-6,5,-2,1
T cruzi repl,-7,-4,13,-1,-7,-16,8,6
Bfl-1 A1 inh,-1.2,0.1,0.6,0.7,0.1,-0.6,0.3,1.4

Values in list order from the entries so far.
rRNA inh HTS RFP, compounds 25 to 32, in order: ., -1.6, -0.5, -5.0, 3.6, -4.0, -13, 6.0

Next section.
33: O=C(Nc1ccc(N2CCCC2)cc1)c1ccc(Cl)cc1Cl
34: Cc1ccc(C2=N/C(=C\c3ccc(OS(=O)(=O)c4ccc(C)cc4)cc3)C(=O)O2)cc1
35: O=C(NCc1n[nH]c(=S)n1-c1ccc(F)cc1)c1ccco1
36: O=C(CSc1ccc2nc(-c3ccccc3)cn2n1)NCC1CCCO1 (centres undefined)
37: O=C(Nc1ccc(OCc2ccccc2Cl)cc1)c1cccnc1
38: CCC(=O)N1CCC2(CC1)Oc1ccc(Cl)cc1C(=O)C21CC(c2ccccc2)=NO1 (centres undefined)
39: COc1ccccc1C1=NNC(=Nc2cccc(S(=O)(=O)N(C)C)c2)SC1
40: Cc1cc(C)c2nc(NC(=O)c3ccc4c(=O)n5c(nc4c3)CCCCC5)sc2c1

Screen / compound no.,33,34,35,36,37,38,39,40
FGF22 binding,i,i,.,i,i,i,i,i
E coli growth,0.69,0.74,0.63,0.64,0.65,0.69,0.72,0.72
AF4-AF9 inh,-2.3,-5.9,.,0.2,-4.4,8.4,1.5,-5.6
rRNA inh HTS,7,.,.,2,-8,1,2,-2
rRNA inh HTS OD600,15,.,.,7,-2,-7,3,9
rRNA inh HTS RFP,1.8,.,.,-1.1,-5.1,-11,3.6,-1.2
UCH37 DUB inh,-3.1,-99,0.0,i,2.6,3.8,0.4,-5.8
Beta apoptosis,.,-5,-4,-4,36,2,42,10
T cruzi repl,10,6,-9,-8,0,10,12,8
Bfl-1 A1 inh,-1.6,0.2,1.2,0.3,0.4,0.4,-0.8,-0.1

Five of the entries above in order of their number in UCH37 DUB inh, largest number first:
no.	structure	FGF22 binding	E coli growth	AF4-AF9 inh	rRNA inh HTS	rRNA inh HTS OD600	rRNA inh HTS RFP	UCH37 DUB inh
37	O=C(Nc1ccc(OCc2ccccc2Cl)cc1)c1cccnc1	i	0.65	-4.4	-8	-2	-5.1	2.6
39	COc1ccccc1C1=NNC(=Nc2cccc(S(=O)(=O)N(C)C)c2)SC1	i	0.72	1.5	2	3	3.6	0.4
35	O=C(NCc1n[nH]c(=S)n1-c1ccc(F)cc1)c1ccco1	.	0.63	.	.	.	.	0.0
40	Cc1cc(C)c2nc(NC(=O)c3ccc4c(=O)n5c(nc4c3)CCCCC5)sc2c1	i	0.72	-5.6	-2	9	-1.2	-5.8
34	Cc1ccc(C2=N/C(=C\c3ccc(OS(=O)(=O)c4ccc(C)cc4)cc3)C(=O)O2)cc1	i	0.74	-5.9	.	.	.	-99

(cont.)
41: CC1(OC(=O)c2ccco2)C(=O)C=C2C=C(C3CC3)OC=C2C1=O (centres undefined)
42: NC(=O)NCc1ccc(F)cc1
43: O=c1c2[nH]c3ccccc3c2nc2n1CCS2
44: CCOC(=O)c1ccc(S(=O)(=O)NC2CCCCCCC2)n1C
45: Cc1noc(C)c1CSc1nnc(C)c(=O)[nH]1
46: Cc1ccc(C(=O)c2c3ccc(C(F)(F)F)cc3nn2CCC(N)=O)cc1
47: c1ccc(CN2CN=C(Nc3nc4ccccc4s3)NC2)cc1
48: COc1ccc(NC(=O)Nc2nnc(-c3ccco3)s2)cc1
49: Cc1cc(C)c(S(=O)(=O)N2CCCOC2CNC(=O)C(=O)NCc2ccco2)c(C)c1 (centres undefined)

Screen / compound no.,41,42,43,44,45,46,47,48,49
FGF22 binding,i,i,i,.,.,i,.,i,.
E coli growth,0.69,0.68,0.7,0.79,0.69,0.69,0.65,0.7,0.69
AF4-AF9 inh,10,-2.8,-0.9,.,.,1.7,.,-2.2,.
rRNA inh HTS,24,-4,-11,.,.,-14,.,2,.
rRNA inh HTS OD600,22,12,-6,.,.,-17,.,-8,.
rRNA inh HTS RFP,43,-1.0,0.4,.,.,3.6,.,-4.7,.
UCH37 DUB inh,4.3,4.8,-4.1,4.0,-1.3,3.3,0.7,1.5,4.0
Beta apoptosis,-10,-17,1,2,-4,0,1,-8,4
T cruzi repl,-13,-8,6,-3,-12,5,5,-5,-1
Bfl-1 A1 inh,0.9,0.5,-0.8,2.3,-0.1,-0.5,-0.4,-4.9,-1.0
